GIRK2 act – opens human GIRK2 potassium channels | P48051 | AID 1259325 | 63,000 tested, 0.05% active | HEK293-GIRK2 thallium flux, Thallos fluorescence | calls only for hits at 25 µM;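 active means among the strongest 0.2% of first-round signals and kept after retests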;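 further: first round at about 10 µM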
Target sequence (P48051 whole entry, looked up): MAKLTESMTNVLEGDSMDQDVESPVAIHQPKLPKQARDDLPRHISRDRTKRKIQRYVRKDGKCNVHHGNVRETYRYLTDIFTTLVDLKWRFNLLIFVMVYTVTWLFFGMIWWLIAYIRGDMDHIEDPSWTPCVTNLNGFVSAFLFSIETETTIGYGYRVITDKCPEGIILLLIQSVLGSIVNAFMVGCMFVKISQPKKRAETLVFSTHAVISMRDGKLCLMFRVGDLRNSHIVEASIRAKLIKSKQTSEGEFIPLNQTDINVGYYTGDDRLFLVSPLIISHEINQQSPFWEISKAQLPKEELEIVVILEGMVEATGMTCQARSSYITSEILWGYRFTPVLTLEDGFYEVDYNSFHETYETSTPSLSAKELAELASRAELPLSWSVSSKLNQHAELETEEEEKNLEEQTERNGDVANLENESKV
Calls only; i = inactive. An excerpt. The share of hits here may be higher or lower than overall.

SMILES	GIRK2 act
CC(=O)c1cccc(NC(=O)Cn2nc(-c3ccco3)c3sc(N4CCCC4)nc3c2=O)c1	i
COc1ccccc1CNC(=O)CCn1cnc2c([nH]c3ccc(Br)cc32)c1=O	i
OCCN1CCN(CCCN2c3ccccc3Sc3ccc(C(F)(F)F)cc32)CC1	i
Nc1c(S(=O)(=O)c2cccs2)c2nc3ccccc3nc2n1/N=C\c1ccco1	i
COC(=O)c1c(NC(=O)c2cc(C)no2)sc(C)c1C	i
CCOc1ccccc1NS(=O)(=O)c1ccc2oc(=O)ccc2c1	i
Cc1cccc(NC(=O)C(C)(C)n2nc(-c3ccccc3)ccc2=O)n1	i
CNCCCCOc1ccccc1Cc1ccccc1	i
O=C(Nc1nc(CCC(=O)N2CCN(c3ccccc3)CC2)cs1)c1cccs1	i
Cc1ccccc1N1CC(c2nc3ccccc3n2CCC(C)C)CC1=O (configuration not stated)	i
CCOc1cc(C)c(S(=O)(=O)N2CCCCC2)cc1C	i
Cc1c(C(=O)N2CCN(C(=O)c3cnn4ccccc34)CC2)cnn1-c1ccccc1	i
O=C(NCC1(c2ccc(F)cc2)CC1)c1cc2ccccc2oc1=O	i
COc1ccc(OC)c(-c2cc(C(=O)Nc3cccc(N4CCCCC4=O)c3)[nH]n2)c1	i
CCOC(=O)c1ccc(-n2c(C)cn3c4c(=O)n(CCCO)c(=O)n(C)c4nc23)cc1	i
CCOC(=O)c1ccc(NC(=O)C2COCC(=O)N2Cc2cccs2)cc1 (configuration not stated)	i
Cc1nc(-c2cccc(NC(=O)CN(C)c3nc4ccccc4s3)c2)cs1	i
Cc1nccn1-c1ncc(NC(=O)c2cnccn2)cn1	i
CCOC(Cc1ccccc1)OCC	i
O=C(c1ccc(Cl)cc1)N1CCN(c2ccc3nncn3n2)CC1	i
COc1ccc(CCNC(=O)CCn2c(=S)[nH]c3cc4c(cc3c2=O)OCO4)cc1OC	i
COCCn1c(=O)c2c(nc3n(-c4ccc(Br)cc4)c(C)c(C)n23)n(C)c1=O	i
C=CCOC(=O)C1=C(C)NC(SCC(=O)Nc2ccc(F)cc2)=C(C#N)C1c1ccco1 (configuration not stated)	i
Cc1cc(C)n(-c2cc(N3CCN(S(=O)(=O)c4c(C)noc4C)CC3)ncn2)n1	i
COCCCn1c(SCc2nc(-c3ccc(C)c(C)c3)no2)nc2cc3c(cc2c1=O)OCO3	i
CSc1ccc(CNc2ncc3c(=O)n(C4CCCC4)c(=O)[nH]c3n2)cc1	i
COc1ccc(CNc2ncnc3[nH]ncc23)cc1	i
CN(c1ccccc1)S(=O)(=O)c1ccc(N)cc1	i
C#CCOCC1CCCN(C(=O)c2cccnc2)C1 (configuration not stated)	i
CNC(=O)c1cn(-c2ccc(SCC(=O)Nc3cccc(Cl)c3C)nn2)cn1	i

The last 2 compounds of the part above are carried over, then new ones follow:
SMILES	GIRK2 act
C#CCOCC1CCCN(C(=O)c2cccnc2)C1 (configuration not stated)	i
CNC(=O)c1cn(-c2ccc(SCC(=O)Nc3cccc(Cl)c3C)nn2)cn1	i
Cc1cc(=O)cc(C)n1-c1ccc(F)cc1	i
O=C(CSc1cc(-c2ccccc2)ncn1)N1CCCC1	i
CC(O)Cn1c(N(C)C)nc2c1c(=O)[nH]c(=O)n2C (configuration not stated)	i
CC(C)(C)C(=O)N1CCC(COCc2ccc(Cl)cc2)CC1	i
COc1cccc(CNC(=O)Cn2c(C)cc(C)c(S(=O)(=O)c3ccc(C)cc3)c2=O)c1OC	i
C=CCc1ccccc1OCC(O)CNC (configuration not stated)	i
CC(=O)NS(=O)(=O)c1ccc(N/C=C(\C#N)c2nc3ccccc3s2)cc1	i
O=C(Nc1ccc(Cn2cnc(C(=O)NCc3ccc(F)cc3)c2)cc1)c1ccccc1	i
COc1ccc(Cl)cc1NC(=O)Nc1ccc2c(c1)C(=O)NCC2	i
COc1ccc(NC(=O)Cn2cccc(-c3nc(-c4ccc(OC)c(OC)c4)no3)c2=O)cc1	i
C=CCNC(=O)Nc1ccccc1NC(=O)c1ccccc1Cl	i
CS(=O)(=O)N(CC(O)Cn1cc(/C=N\O)c2ccccc21)c1ccc(Cl)cc1 (configuration not stated)	i
COc1ccc(NC(=O)Cn2cccc(-c3nc(-c4ccccc4)no3)c2=O)c(OC)c1	i
O=C(Cc1c[nH]c2ccccc12)N1CCC(c2nnc(C3CC3)o2)CC1	i
O=C(c1cccs1)N1CCC(c2cccs2)CC1	i
COCC(=O)N1CCC(Cn2cnc3ccccc32)CC1	i
COc1ccccc1NC(=O)C1=C(C)Nc2nc(C)nn2C1c1ccc(C)cc1 (configuration not stated)	i
Cc1cn2c(nc3c2c(=O)n(CCC(C)C)c(=O)n3C)[nH]1	i
COc1ccc(C=O)cc1CSc1nc2c(sc3ncccc32)c(=O)n1Cc1cccs1	i
O=C(CN1CCN(C(=O)Nc2c(F)cccc2F)CC1)c1ccco1	i
COc1ccc(CN2N=NC3C(=O)N(c4ccc(OC)c(Cl)c4)C(=O)C32)cc1 (configuration not stated)	i
CN(c1ccsc1C(=O)NCCC1=CCCCC1)S(=O)(=O)c1ccccc1	i
Cc1oc2nc(SC3CCOC3=O)nc(NC(=O)c3ccccc3)c2c1C (configuration not stated)	i
Cc1ccc(Cn2c(C3CC(=O)N(c4ccc(F)cc4)C3)nc3ccccc32)cc1 (configuration not stated)	i
Cc1csc(CN2CCN(C(=O)CCC3CCCC3)CC2)n1	i
COCC(=O)Nc1nnc(-c2cc(C)cs2)o1	i
COC(=O)c1sccc1S(=O)(=O)N1CCN(c2ccc(-c3noc(C)n3)cn2)CC1	i
CCN(CC)C(=O)c1cnc2ccccc2c1S(=O)(=O)c1ccc(C(C)C)cc1	i
CC1(C(=O)O)CCCC2(C)C3CCC4CC3(CCC12)CC4=O (configuration not stated)	i
Cc1cc(C(F)(F)F)nc(CCNC(=O)c2cc3ccccc3oc2=O)n1	i

Pulled by structure from the entries so far, six records:
SMILES	GIRK2 act
COCC(=O)N1CCC(Cn2cnc3ccccc32)CC1	i
Cc1oc2nc(SC3CCOC3=O)nc(NC(=O)c3ccccc3)c2c1C (configuration not stated)	i
CC1(C(=O)O)CCCC2(C)C3CCC4CC3(CCC12)CC4=O (configuration not stated)	i
Cc1cn2c(nc3c2c(=O)n(CCC(C)C)c(=O)n3C)[nH]1	i
O=C(CN1CCN(C(=O)Nc2c(F)cccc2F)CC1)c1ccco1	i
Cc1csc(CN2CCN(C(=O)CCC3CCCC3)CC2)n1	i

Going on with the list.
SMILES	GIRK2 act
COc1ccc(-c2nn3c(NC4CCCC4)cc(C)nc3c2C)cc1OC	i
COCCNC(=O)NC1CC(=O)N(C2CC2)C1 (configuration not stated)	i
COc1ccc(S(=O)(=O)Nc2ccc3c(c2)CCC(=O)N3)cc1C	i
COc1ccc(CNC(=O)CSc2nccnc2N2CCN(c3ccccc3OC)CC2)cc1	i
Cc1nnc(NC(=O)CSc2nnc(N3CCN(C)CC3)s2)s1	i
O=C(CC1Nc2ccccc2NC1=O)NC1CCCC1 (configuration not stated)	i
CC(C)c1noc(-c2ccnc(SCC(=O)NCc3cccc(Cl)c3)c2)n1	i
COc1cc2nc(SCC(=O)Nc3cc(C)[nH]n3)n3nc(-c4ccccc4)nc3c2cc1OC	i
O=C(NCCc1ccccc1)N1CCCC(c2nnc(-c3ccc4c(c3)OCO4)o2)C1 (configuration not stated)	i
CC(C)Cn1c(SCC(=O)c2ccc([N+](=O)[O-])cc2)nc2c1c(=O)[nH]c(=O)n2C	i
Cc1onc(-c2ccccc2Cl)c1C(=O)Nc1cnc(-n2ccnc2C)nc1	i
COCc1nn2c(c1-c1ccccc1)NC(=O)C2CC(=O)Nc1ccccc1F (configuration not stated)	i
O=C(Cn1nc(-c2ccccc2)c2sc(N3CCCC3)nc2c1=O)OCc1ccccc1	i
COc1ccc(C(=O)Nc2c(-c3ccccn3)c(=O)c3ccccc3n2C)cc1	i
COc1ccc(OC)c(NC(=O)Cn2c(N3CCCC3)nc(C)cc2=O)c1	i
O=C(C1CCC1)N1CCN(Cc2nncn2C2CCCCC2)CC1	i
NS(=O)(=O)c1ccc(N=Nc2c(O)[nH]c3cccc(CCc4ccncc4)c23)cc1	i
COc1ccc(S(=O)(=O)N2CCCOC2CNC(=O)C(=O)NCc2ccccc2C)cc1 (configuration not stated)	i
CCc1c(C)nc2n(c1=O)CC(C(=O)NCc1ccc3c(c1)OCO3)CS2 (configuration not stated)	i
O=C1CCSCC(C(=O)N2CCN(CCc3ccccc3)CC2)N1 (configuration not stated)	i
COCCn1c(=O)c2c(nc3n(-c4ccccc4)c(-c4ccccc4)cn23)n(C)c1=O	i
COc1ccccc1CNC(=O)c1cn(-c2cc(N3CCOCC3)ncn2)cn1	i
CC(C)OC(=O)CCC/C=C\C[C@@H]1[C@@H](/C=C/[C@H](O)CCc2ccccc2)[C@H](O)C[C@@H]1O	i
O=C(Nc1nc(-c2cc3ccccc3o2)cs1)c1ccco1	i
COc1cc2nc(N(C)CCCNC(=O)C3CCCO3)nc(N)c2cc1OC (configuration not stated)	i
COc1cc(NC(=O)CC(c2ccccc2)c2ccccc2)ncn1	i
Cc1ccc(NC(=O)Cc2cccc3ccccc23)cc1N1CCCC1=O	i
Cc1ccc2c(oc(=O)c3cnc4c5ccccc5oc4c32)c1C	i
O=C(CSc1ncnc2nc(N3CCc4ccccc4C3)sc12)NCc1cccs1	i
Cc1ccccc1N1C(=O)N(CC(=O)N2CCCCCC2)c2ccccc2S1(=O)=O	i

Some of these compounds in order of length of the SMILES, falling:
SMILES	GIRK2 act
COc1ccc(S(=O)(=O)N2CCCOC2CNC(=O)C(=O)NCc2ccccc2C)cc1 (configuration not stated)	i
COc1ccccc1CNC(=O)c1cn(-c2cc(N3CCOCC3)ncn2)cn1	i
O=C1CCSCC(C(=O)N2CCN(CCc3ccccc3)CC2)N1 (configuration not stated)	i
O=C(C1CCC1)N1CCN(Cc2nncn2C2CCCCC2)CC1	i
O=C(Nc1nc(-c2cc3ccccc3o2)cs1)c1ccco1	i

(more compounds)
SMILES	GIRK2 act
O=C(Nc1cccc(N2CCCS2(=O)=O)c1)c1ccc(Cl)cc1	i
COc1ccc(C)cc1NC(=O)CSc1ccc(-n2cnc(C)c2)nn1	i
Cc1noc(CNC(=O)c2cc(=O)c3ccccc3o2)n1	i
COc1ccc(/C=C/C(=O)N2CCc3nc(NC(=O)C4CCCO4)sc3C2)cc1OC (configuration not stated)	i
CCOc1ccccc1-c1noc(CN2C(=O)COc3ccc(C)cc32)n1	i
CCOc1ccc(/C=C/c2nc(C#N)c(N3CCN(C(=O)c4ccc(C)cc4)CC3)o2)cc1	i
C[C@]12C=CC(=O)C=C1CC[C@@H]1[C@@H]2[C@@H](O)C[C@@]2(C)[C@H]1CC[C@]2(O)C(=O)COC(=O)CCC(=O)O	i
CS(=O)(=O)N1CCN(CC(=O)c2cccs2)CC1	i
CN(Cc1cc(=O)[nH]c2ccccc12)C(=O)c1ccc(-c2ccc(F)cc2)o1	i
CCCc1ccc(S(=O)(=O)NCC2(c3cccs3)CCOCC2)cc1	i
Cc1cc(=O)n(CC(=O)N2CCCc3ccccc32)c(N2CCOCC2)n1	i
Cc1cc(C)c(S(=O)(=O)NC(C)C)cc1N(C)S(C)(=O)=O	i
COc1cccc(COc2cn(C)c(C(=O)N3CCN(C(=O)c4ccco4)CC3)cc2=O)c1	i
Cc1ccc(-c2cc3c(=O)n(CC(N)=O)ccn3n2)cc1	i
COCCN(Cc1ccncc1)C(=O)CCc1ccccc1	i
O=C(Nc1ccccc1F)c1ccc(N2C(=O)c3ccccc3C2=O)cc1	i
COc1ccc(-n2c(C)c(C)n3c4c(=O)n(C)c(=O)n(C)c4nc23)cc1	i
COc1ccc(S(=O)(=O)CC(=O)N(CCN(C)C)c2nc3c(F)cccc3s2)cc1	i
O=C(Oc1ccc2c(c1)O/C(=C\c1ccncc1)C2=O)c1cccc([N+](=O)[O-])c1	i
O=C(CSc1nc(-c2cccc(Cl)c2)cs1)N1CCOCC1	i
CCOc1ccc(Nc2ncccc2S(=O)(=O)NC)cc1	i
CCC(CC)C(=O)Nc1cc(-c2cccs2)nn1-c1nc(C)c(C)c(=O)[nH]1	i
CCc1cccc(NC(=O)Cn2nc3ccc(SC4CCCCC4)nn3c2=O)c1	i
Cc1nc(Nc2ccccn2)cc(N2CCN(S(C)(=O)=O)CC2)n1	i
CC(C)(C)Cc1nnc(C2CCCN(S(=O)(=O)c3ccc(Cl)cc3)C2)o1 (configuration not stated)	i
COc1ccc(-c2coc3c4c(ccc3c2=O)OCN(CC2CCCO2)C4)cc1 (configuration not stated)	i
Cc1noc(CNS(=O)(=O)c2ccc(OC(F)(F)F)cc2)n1	i
C#CCOCC1CCCN(S(=O)(=O)c2cc(F)ccc2OC)C1 (configuration not stated)	i
CCc1ccc(NC(=O)CSc2nc(-c3sc(-c4ccc(OC)cc4)nc3C)cc(=O)[nH]2)cc1	i
CCc1c(C)nc2n(c1=O)CC(C(=O)NCc1cccs1)CS2 (configuration not stated)	i
CC(=O)c1ccc(NC(=O)Cn2cccc(S(=O)(=O)N3CCC(C)CC3)c2=O)cc1	i
CC(C)c1ccc(N(Cc2ccccc2)S(=O)(=O)c2cccn3cnnc23)cc1	i
COc1ccc(NC(=O)C(=O)NN2CCN(C)CC2)cc1Cl	i
COc1ccc(C2(CNC(=O)COc3ccc(Cl)cc3)CCOCC2)cc1	i
Cn1cc(-c2cccs2)nc1CCNC(=O)Cn1cnc2c1c(=O)n(C)c(=O)n2C	i
CCOc1ccc(N2CC(C)Cn3c2nc2c3c(=O)n(C/C=C/c3ccccc3)c(=O)n2C)cc1 (configuration not stated)	i
O=C(CSc1ccc2ccccc2n1)N1CCCc2ccccc21	i
Cc1nc2sc(C)c(C)n2c(=O)c1NC(=O)COc1ccccc1F	i
Cc1ccc(NC(=O)CN2CC(c3nc(C4CC4)no3)C2)cc1Cl	i
CC(C)(C)NC(=O)CSc1ccc(-c2ccccc2Cl)nn1	i
CCCCn1c(SCC(=O)Nc2ncn[nH]2)nc2ccccc2c1=O	i
CC(C)(Oc1ccc(Cl)cc1)C(=O)N1CC(c2nc(-c3ccccc3)no2)C1	i
Cc1cc(S(=O)(=O)NCCN2CCOCC2)c(Cl)cc1Cl	i
CCSc1ccccc1C(=O)NCCn1nc(-n2nc(C)cc2C)ccc1=O	i
Cc1onc(-c2ccccc2Cl)c1C(=O)Nc1cccc2ccc(-n3ccnc3)nc12	i

Screens deposited in PubChem BioAssay by Vanderbilt University.
